Compound activity from PubChem.
Vaccinia Venus – vaccinia inhibition (Venus reporter); hit rate 0.46% among 330,000; AID 720580; Potency, µM (doses to about 36.5 µM), for the others: at the top dose activity change, negative = inhibition, most hits filed as inhibitors; Vaccinia virus Venus reporter expression, fluorescence; active means well fitted inhibition curve with a large enough effect; inconclusive means small, poorly fitted or top-dose-only effect; inactive means no such curve, though single readings can be large or run the other way; tested in A549 cells; also: nearly all actives have a fitted effect of over 30% in size; inactives centre near -10
VACV mCherry inh – inhibitors of vaccinia virus infection (mCherry reporter signal). hit rate 0.63% among 310,000. AID 720579. Potency, µM (doses to about 36.5 µM), inactives show at the top dose activity change, negative = inhibition, hits mostly inhibitors. Vaccinia virus mCherry reporter infection, fluorescence; about a quarter of the inactives have no number; active = well fitted inhibition curve with a large enough effect; inconclusive = small, poorly fitted or top-dose-only effect; inactive = no such curve, though single readings can be large or run the other way; tested in A549 cells; also: nearly all actives have a fitted effect of over 35% in size; inactives centre near -10
Starred values were filed as active, the others as inactive; i = inactive; ? = inconclusive; nt = not tested or not shown; & = joins results of further samples; [ ] = remark or other dose. % is scaled to controls: 0 for no effect and ±100 for the full control effect; potency is read from the fitted curve at half-maximal effect.

SMILES,Vaccinia Venus,VACV mCherry inh
COc1ccc(NC(=O)C(c2ccnc3ccccc23)n2c(=O)c(-c3ccccc3)nc3ccccc32)cc1 (stereo not drawn),-9.0%,-7.6%
Cc1ccc2[nH]c3c(c2c1)CN(C(C)C)CC3,-10.8%,-26.4%
O=C(NNC(=O)C1CCC1)c1ccc(Br)cc1,-5.7%,i
Cc1ccc(NC(=O)C(C)N2C(=O)c3ccccc3S2(=O)=O)cc1Cl (stereo not drawn),-7.8%,-11.2%
O=C(CSc1nnc2n(C3CCCCC3)c(=O)c3ccccc3n12)OC1CCCCC1,-5.6%,-0.2%
COc1cc2[nH]c(=S)n(Cc3ccccc3)c(=O)c2cc1OC,-19.0%,-2.5%
CC(=O)c1ccc(N2CCN(c3ncnc4c3cnn4-c3cc(Cl)ccc3C)CC2)cc1,-28.0%,?
COc1ccccc1NC(=S)N(CCN1CCOCC1)Cc1ccccc1F,-13.3%,-12.5%
Cc1ccccc1-c1nnn(Cc2ccc(-c3nn[nH]n3)cc2)n1,-2.6%,1.4%
CC1CCN(C(=O)CNS(=O)(=O)c2ccc(Br)s2)CC1,0.0%,-8.5%

Random excerpt: five entries already listed, in no set order.
SMILES,Vaccinia Venus,VACV mCherry inh
O=C(CSc1nnc2n(C3CCCCC3)c(=O)c3ccccc3n12)OC1CCCCC1,-5.6%,-0.2%
O=C(NNC(=O)C1CCC1)c1ccc(Br)cc1,-5.7%,i
Cc1ccc2[nH]c3c(c2c1)CN(C(C)C)CC3,-10.8%,-26.4%
COc1ccc(NC(=O)C(c2ccnc3ccccc23)n2c(=O)c(-c3ccccc3)nc3ccccc32)cc1 (stereo not drawn),-9.0%,-7.6%
COc1cc2[nH]c(=S)n(Cc3ccccc3)c(=O)c2cc1OC,-19.0%,-2.5%

Next section:
SMILES,Vaccinia Venus,VACV mCherry inh
O=C(N/N=C/c1ccc[nH]1)c1cccc(Br)c1,-22.4%,?
Cc1cc(C(F)F)n2nc(C(=O)Nc3c(F)cc(F)cc3Br)nc2n1,-18.1%,nt
COc1cc(C2c3cc4c(cc3CC3COC(=O)N32)OCO4)cc(OC)c1OC (stereo not drawn),?,?
COC(=O)c1ccc(N=C2SCC(=O)N2C)cc1,-0.8%,i
COc1ccc(/C=C/C(=O)Nc2nc3n(n2)C(c2ccc(F)cc2)C=C(c2ccccc2)N3)cc1 (stereo not drawn),-13.8%,-7.8%
CC(C)(C)NC(=O)CSc1nc(N)c(NC(=O)c2ccccc2F)c(=O)[nH]1,-10.2%,i
CC(=O)N1CC(=O)N=C1SCC(=O)Nc1nc(C)c(-c2ccccc2)s1,-17.7%,?
O=[N+]([O-])c1ccc(C2=CSC3=NCCN23)cc1,-11.2%,i
COc1ccc2[nH]c(=O)c(CN(C(=O)c3cccnc3)c3ccccc3)cc2c1,-11.0%,-7.4%[1.46 µM]
CCOC(=O)c1cnc(-n2nc(C)cc2C)[nH]c1=O,-17.6%,-19.6%

Remaining list, next part:
SMILES,Vaccinia Venus,VACV mCherry inh
COc1cc(CN2CCN(Cc3ccc4cc(F)ccc4n3)CC2CCO)cc(OC)c1 (stereo not drawn),-5.1%,?
O=C(NCc1ccco1)c1cccnc1Cl,-6.8%,-11.4%
Oc1c(Br)cc(Br)cc1C=Nc1ccc2c(c1)OCO2,-7.0%,-18.8%
C[C@]12CCC3C(CC[C@H]4C[C@H](O)CC[C@]34C)C1CCC2=O (stereo partly drawn),-10.0%,-12.9%
Cc1cc(-c2nc3ncccc3o2)ccc1NC(=O)c1ccc(Cl)cc1,-2.9%,-17.2%
COc1ccc2oc(C(=O)Nc3ccccn3)c(C)c2c1,-3.6%,i
COc1cccc(NC(=S)NNC(=O)Cn2nc(C(F)(F)F)cc2C)c1,0.3%,-21.4%
CC(C)(C)c1ccc(/C=N/OCC(=O)NCc2ccccc2)cc1,-24.0%,?
Cc1c(C)n(Cc2ccc(F)cc2)c2ccc(C(=O)NCCCN3CCOCC3)cc12,-26.1%,?
Cc1cccc(N2CCN(C(=O)c3ccc(N4CCCC4=O)cc3)CC2)c1C,-18.2%,-2.8%

The list continues:
SMILES,Vaccinia Venus,VACV mCherry inh
Oc1ccc2cccnc2c1,-13.6%,-15.9%
CC(=O)C1=CCC(c2ccccc2)N(S(=O)(=O)c2ccccc2C)C1 (stereo not drawn),-9.4%&-3.3%,6.2%
O=[N+]([O-])c1ccccc1S(=O)(=O)N1CCN(C2CCN(Cc3ccccc3)CC2)CC1,-29.5%,-15.9%
Cc1ccc(C)c(Nc2nn3c(=O)c4ccc(C(=O)N(C)Cc5ccccc5)cc4nc3s2)c1,-18.4%,-16.2%
OCCCCNCc1cc(Br)ccc1OCc1ccccc1F,-10.8%,-18.9%
CCCn1c(O)c(N=N)c2ccccc21,-3.3%,-4.2%
CC(C)(C)OC(=O)C[C@H]1C/C=C\C[C@H](CC(=O)NCCO)C(=O)NCCOC1=O,0.9%,i
Cc1ccc2nc(-c3ccc(C)o3)c(Nc3ccc(Cl)cc3)n2c1,-1.4%,-7.9%
COc1ccccc1Cc1nc2ccccc2nc1SCC(=O)NCc1ccccc1Cl,-25.5%,-1.5%
CCc1nc(NC2CCCCC2)c(C#N)c2c1COC(C)(C)C2,26.5%,nt

Next results follow:
SMILES,Vaccinia Venus,VACV mCherry inh
CCOC(=O)c1ccc(NC(=S)N(CCCN2CCCCC2)Cc2ccco2)cc1,-14.6%,-15.2%
NS(=O)(=O)c1ccc(CNC(=O)CSc2nc3ccc(Cl)cc3[nH]2)cc1,-14.4%,i
Cc1ccc(C)c(N2CCN(C(=O)C3CCN(S(=O)(=O)c4cccc5nsnc45)CC3)CC2)c1,?,-16.5%
Cc1ccccc1OCC1Cn2c(nc3c2c(=O)n(C)c(=O)n3C)O1 (stereo not drawn),-22.4%,-7.5%
COc1cc(/C=C(\C#N)c2nc3ccccc3c(=O)[nH]2)cc(OC)c1OC,9.6%,1.1%
CCCS(=O)(=O)N1CCCC(C(=O)NC2CCCCC2)C1 (stereo not drawn),-22.8%,-18.9%
C=C1C(=O)O[C@@H]2C[C@@H](C)[C@@H]3C4OC4C(=O)[C@@]3(C)[C@@H](O)[C@H]12 (stereo partly drawn),14.1µM*,?
COc1ccccc1C(=O)NN=C1CCN(Cc2ccccc2)CC1,-11.9%,-3.4%
CC(C)c1ccc(C(=O)Nc2ccc(CN3CCOCC3)cc2)cc1,-17.5%,-13.6%
CCOC(=O)/C(=C/C=C1\Sc2cc(OCC)c(OCC)cc2N1CC)C(C)=O,198.1%[activator],-9.9%

Following part
SMILES,Vaccinia Venus,VACV mCherry inh
Cc1ccc(CN2CC(C(=O)OCc3ccccc3Cl)CC2=O)cc1 (stereo not drawn),2.3%,-6.4%
Cc1ccc(NC(=O)Cn2nnc(C(=O)NCCc3ccccc3)c2N)cc1,-7.4%,-1.1%
Cc1ccc(C(=O)NCC(c2ccco2)N2CCc3ccccc3C2)cc1C (stereo not drawn),-20.4%,0.0%
CCN(CC(=O)Nc1c(F)cccc1F)C(=O)CNC(=O)C1CCCCC1,-15.8%,-17.6%
COc1ccc(CN(C)C(=O)c2sccc2-c2ccccc2)c(OC)c1,-5.7%,i
CNC(=O)c1[nH]cnc1C(=O)Nc1ccccc1C,-10.0%,nt
CCOC(=O)c1[nH]c2ccccc2c1NC(=O)CN(C)C,9.8%,nt
COc1ccc(NC(=O)Cn2nnc(-c3ccccc3)c2COc2ccc(C(C)=O)cc2)cn1,10.7%,-1.5%
C/C(=N\O)C(=O)NCC1CCNCC1,-9.6%,-18.6%
Cc1ccc(CN(C(=O)Cn2nnc3ccccc32)C(C(=O)NCc2ccco2)c2ccc(C)o2)cc1 (stereo not drawn),?,nt

Other records
SMILES,Vaccinia Venus,VACV mCherry inh
CN(c1ccc(OCC(=O)NCCc2ccccc2)cc1)S(=O)(=O)c1ccc(Cl)cc1,?,-11.5%
CC(=O)Nc1ccc(OCC(O)Cn2nc(C)c(C(C)=O)c2C)cc1 (stereo not drawn),-12.7%,-10.3%
COc1ccc(C(=O)Nc2cccc3nc(C)ccc23)cc1OC,-10.2%,-7.4%
CCOC(=O)Cn1c(N2CCCCCC2)nc2c1c(=O)[nH]c(=O)n2C,-4.4%,nt
O=C(CN1C(=O)CCS(=O)(=O)c2ccccc21)NCc1ccc2c(c1)OCO2,-19.4%,nt
Cc1c(CCC(=O)NCCCn2ccnc2)c(=O)oc2cc3occ(C(C)(C)C)c3cc12,-26.0%,-27.9%
O=C(Nc1ccccc1)C1C2CCCCC21 (stereo not drawn),-11.2%,-8.8%
CCCN1Cc2cccc(C(=O)NC3CCCC3)c2C1=O,-18.5%,?
COc1ccc2c(c1)c(CC(=O)Nc1ccc(C(C)=O)cc1)c(C)n2C(=O)c1ccc(Cl)cc1,-10.1%[7.34 µM],-21.0%[7.34 µM]
C=CC[C@@H](CC(=O)N(CCO)Cc1ccccc1)C(=O)N[C@@H](COC(=O)[C@H](CC=C)CC(=O)OC(C)(C)C)Cc1c[nH]c2ccccc12,11.2µM*,?

Next compounds:
SMILES,Vaccinia Venus,VACV mCherry inh
OC(CNCCCN1CCCCC1)COc1ccccc1 (stereo not drawn),?,nt
COc1ccc(C2C3=C(CC(C)(C)CC3=O)Nc3n[nH]c(C)c32)cc1 (stereo not drawn),-11.2%,nt
O=C(Nc1cccc(F)c1)c1ccccc1-c1ccccc1,3.5%,-3.7%
COc1ccc(CCc2c[nH]c(=O)c3cncnc23)cc1OC,-19.4%,-3.1%
CC1=NN(c2cccc(C(=O)O)c2)C(=O)/C1=C\C=C\c1ccco1,-3.2%,-17.5%
COc1cc(OC)cc(C(=O)NN(CCC#N)C2=NS(=O)(=O)c3ccccc32)c1,-7.5%,-5.5%
O=C(CCCn1c(=O)[nH]c2ccccc2c1=O)Nc1ccc(F)cc1,-12.8%,-2.8%
CC(C)CCN1C(=O)CSCC1(C)C(=O)NCc1ccccc1 (stereo not drawn),-19.4%,-12.4%
C=CCNc1oc(-c2cccc3ccccc23)nc1C#N,?,-22.1%
COc1ccc2c(c1)CCc1cnc(-n3ncc(C(=O)N(C)CC4CCCN(C)C4)c3C)nc1-2 (stereo not drawn),-8.0%,-7.8%

Next compounds:
SMILES,Vaccinia Venus,VACV mCherry inh
CN=C1SC(CC(=O)Nc2ccc(C(C)=O)cc2)C(=O)N1C (stereo not drawn),-16.3%,nt
CN1CCN(CCC(=O)Nc2ccc(Br)cc2)CC1,-10.5%,-0.3%
Cc1ccc(CCC(=O)Nc2ccccc2F)s1,-13.6%,i
Cc1ccc(-n2ncc(C(=O)N3CCCCC3)c2C2CCN(C(=O)OC(C)(C)C)CC2)c(C)c1,-5.1%,-3.6%
Cc1oc(CC(C)C)c(CN2CCCC2)c1C(=O)O,-7.9%,-11.9%
Cc1cccc(Oc2ncc(-c3ccc(Cl)cc3)cn2)c1,-18.2%,nt
Cn1cccc1/C=C1\C(=O)NC(=O)N(Cc2ccccc2)C1=O,0.2%,i
O=C(NC1(Cc2ccccc2)CCN(CCCc2ccccc2)C1=O)c1ccccc1 (stereo not drawn),?,i
Cc1ccc(/C=C/C(=O)Nc2cccc3cccnc23)o1,14.4%,-15.1%
CCOC(=O)C1(C)CCCCCN1C(=O)c1ccco1 (stereo not drawn),3.2%,8.0%

Continuation.
SMILES,Vaccinia Venus,VACV mCherry inh
CCC(C)C1NC(=O)C2CCCN2C(=O)C(CC(C)C)OC(=O)CCNC(=O)C(C)N(C)C(=O)C(C(C)C)N(C)C1=O (stereo not drawn),-27.5%,-26.4%
Cc1cc(C)n(C(=O)CCC(=O)NCc2ccccc2)n1,0.7%,-13.3%
CC(=O)NS(=O)(=O)c1ccc(N=NN2CCCCCC2)cc1,-7.3%,9.9%
O=C(Oc1ccc(Br)cc1C(=S)N1CCOCC1)c1ccccc1,-7.1%,-17.2%
Cc1ccc(NC(=O)CSc2nccn(-c3ccc4c(c3)OCCO4)c2=O)cc1,-2.7%,-12.2%
Nn1c(SCc2csc(-c3ccccc3)n2)nnc1-c1cccs1,-12.7%,-14.0%
O=C(O/N=C\c1ccc(N2CCCCC2)c([N+](=O)[O-])c1)c1cccc(Cl)c1,-5.5%,i
CC(O)[C@@H](N)C(=O)O (stereo partly drawn),-5.5%,-13.3%
CC(=O)c1cccc(NS(=O)(=O)c2ccc3c(c2)NC(=O)CC(=O)N3)c1,-8.7%,-13.4%
O=C(CN(Cc1cccs1)C(=O)CCC(=O)Nc1ccccn1)NCc1ccccc1,-7.6%,-23.5%

Other records follow:
SMILES,Vaccinia Venus,VACV mCherry inh
O=C(O)C1=C[C@H](c2ccc3c(c2)OCO3)C[C@H](OCCCCO)O1,-2.6%,i
CC(=O)O[C@@H]1[C@H]2CC[C@@H]3[C@]1(C[C@@H](OC(C)=O)[C@@]1(O)C([C@@H]4O[C@@H]4C1(C)C)[C@]3(C)O)C[C@@]2(C)O (stereo partly drawn),2.7%,-15.5%
CCC1CN(CCNC(=O)c2cccnc2OC)Cc2cc(OC)ccc2O1 (stereo not drawn),-1.0%,-13.4%
CCn1c2ccccc2c2nnc(NN)nc21,-15.5%,-2.9%
CCCN1CCC(=O)N([C@H](CSc2ccccc2)Cc2ccccc2)CC1,-6.1%&-16.1%,-7.4%&-24.1%
Nc1nnc(SCC(=O)N2CCc3ccccc32)n1-c1ccccc1,-4.4%,-6.0%
CCC/C(=N\NC(=O)C1CC1)c1ccccc1,10.3%,i
